AID923: qHTS Assay for Allosteric/Competitive Inhibitors of Caspase-1: Spectroscopic Profiling in AFC Spectral Region. AID 923, 2007. Potency, µM (top dose mostly 57.5 µM), inactives show at the top dose fluorescence increase, usual class: activators. 75,000 tested, 1.1% active. compound fluorescence, AFC spectral region (405/520 nm); almost no hit is shown here; active means well fitted activation curve with a large enough effect; inconclusive means small, poorly fitted or top-dose-only effect;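 further: potency means the concentration at half of the fitted maximal effect; 0% is about no effect; scaled to a free AFC standard on each plate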
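Titrations up to 57 uM read every 20 sec for 3 min (405/520 nm) with 50 nM caspase 1 and 5 uM Ac-WEHD-AFC, pH 7.5 HEPES buffer. Fluorescence-vs-time intercept gave baseline, scaled against on-plate AFC standard.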
A647 fluor: compound fluoresces in the A647 spectral region. 59,000 tested, under 10 active. AID 592. Compound fluorescence, A647 channel (570/671 nm), Tris buffer. max dye-equivalent concentration, M; active means above 1 µM dye equivalent; inconclusive means 0.1 to 1 µM; inactive means 0.1 µM or less;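 further: values scaled relative to a standard on each plate; highest value over a series up to 38 µM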
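Compound fluorescence was measured in 100 mM Tris buffer, pH 8.0, after 15 min at room temperature, using 570 nm excitation and 671 nm emission filters. Signal was normalized to a per-plate Alexa 647 standard curve and expressed as dye-equivalent concentration at each compound concentration.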
Resorufin fluor: compound fluoresces in the resorufin spectral region. Compound fluorescence, resorufin region 547/598 nm, buffer; stronger effect = higher value. max dye-equivalent concentration, M. 59,000 tested, 0.04% active; active = above 10 nM dye equivalent; inconclusive = 1 to 10 nM; inactive = 1 nM or less; a few of its hits are not listed in these tables; further: highest value over a series up to 38 µM
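Compounds in 100 mM Tris buffer, pH 8.0, incubated 15 min at room temperature, then read with 547 nm excitation and 598 nm emission filters. Fluorescence was converted to dye-equivalent concentration using an on-plate six-point resorufin standard curve.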
TSHR ag: activates the human thyroid stimulating hormone receptor; HEK293-CNG-TSHR cells (CNG channel as cAMP sensor), membrane potential dye, cAMP; Potency, µM (highest dose often 57.1 µM), without a hit: top-dose activation, hits mostly activators; 73,000 tested, 0.48% active; AID 926; active = well fitted activation curve of enough size with the parental cells flat; inconclusive = any curve in the parental cells; inactive = parental cells flat and receptor cells flat or falling; further: potency means the concentration at half of the fitted maximal effect; % of control where 0% means no effect; weak receptor curves with flat parental cells got no call and are not listed
Target sequence (P16473 whole entry, looked up): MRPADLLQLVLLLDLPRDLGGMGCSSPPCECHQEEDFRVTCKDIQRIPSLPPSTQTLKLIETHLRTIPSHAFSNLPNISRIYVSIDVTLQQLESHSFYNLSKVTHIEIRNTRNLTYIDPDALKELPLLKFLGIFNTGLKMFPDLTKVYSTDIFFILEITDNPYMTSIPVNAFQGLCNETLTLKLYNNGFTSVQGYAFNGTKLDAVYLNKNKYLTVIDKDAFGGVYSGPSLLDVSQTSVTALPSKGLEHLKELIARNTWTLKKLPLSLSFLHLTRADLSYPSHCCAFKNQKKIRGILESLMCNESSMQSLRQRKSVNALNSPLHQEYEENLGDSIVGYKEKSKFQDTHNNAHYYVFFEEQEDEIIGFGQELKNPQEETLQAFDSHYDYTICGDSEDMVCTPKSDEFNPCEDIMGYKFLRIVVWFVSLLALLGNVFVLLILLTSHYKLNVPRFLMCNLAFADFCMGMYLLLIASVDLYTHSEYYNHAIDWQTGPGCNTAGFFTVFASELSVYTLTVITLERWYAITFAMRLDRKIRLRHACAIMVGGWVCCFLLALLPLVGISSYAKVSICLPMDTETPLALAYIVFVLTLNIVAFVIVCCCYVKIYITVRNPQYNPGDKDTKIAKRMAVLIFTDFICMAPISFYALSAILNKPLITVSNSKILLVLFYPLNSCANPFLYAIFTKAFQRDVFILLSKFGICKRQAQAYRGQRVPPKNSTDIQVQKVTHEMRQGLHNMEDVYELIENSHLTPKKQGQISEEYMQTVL
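HEK 293 cells stably expressing TSHR and a cAMP-gated CNG channel; parental CNG-only cells as counterscreen. Cells preloaded 60 min with membrane potential dye plus 100 uM RO 20-1724, then compound 30 min; fluorescence read at 590 nm.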
A488 autofl: A488 region autofluorescence | compound autofluorescence, A488 spectral region, dye equivalency; stronger effect = higher value | 59,000 tested, 0.1% active | max dye equivalency, M; active = above 10 nM dye equivalent; inconclusive = 1 to 10 nM; inactive = 1 nM or less; about half of its hits are not listed in these tables;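 further: highest value over a series up to 38 µM; compound alone in buffer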
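Autofluorescence read at ex 480/em 540 nm after 15 min RT in 100 mM Tris pH 8.0; compound signal normalized to A488 standard series on each plate, reported as dye-equivalent concentration at each test concentration.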
Numbers without * were called inactive; i = inactive; ? = inconclusive; · = no result given; & = joins results of further samples; [ ] = dose if it differs, or a comment. An excerpt (hit frequency here may not be typical).

The opening four records as a preview:
SMILES	AID923	A647 fluor	Resorufin fluor	TSHR ag	A488 autofl
CC1(C)CC(=O)c2cnc(NCC3CCCO3)nc2C1 (centres undefined)	-1.1%	2.4e-08	i	-2%	i
CCCC(=O)c1c(NC(C)C)cc(C)oc1=O	-0.9%	1e-08	i	8%	i
COc1ccc(S(=O)(=O)N(Cc2ccc(OC)c(OC)c2)Cc2ccco2)cc1	1.4%	1e-09	i	?	i
COc1ccc(Cl)cc1NS(=O)(=O)c1cc(Cl)ccc1OC	0.7%	·	·	-7%[11.4 µM]	·

The whole of this part, previewed entries included:
SMILES	AID923	A647 fluor	Resorufin fluor	TSHR ag	A488 autofl
CC1(C)CC(=O)c2cnc(NCC3CCCO3)nc2C1 (centres undefined)	-1.1%	2.4e-08	i	-2%	i
CCCC(=O)c1c(NC(C)C)cc(C)oc1=O	-0.9%	1e-08	i	8%	i
COc1ccc(S(=O)(=O)N(Cc2ccc(OC)c(OC)c2)Cc2ccco2)cc1	1.4%	1e-09	i	?	i
COc1ccc(Cl)cc1NS(=O)(=O)c1cc(Cl)ccc1OC	0.7%	·	·	-7%[11.4 µM]	·
CC(C)(C)NC(=O)[C@@H]1C[C@@H]2CCCC[C@@H]2CN1C[C@@H](O)[C@H](Cc1ccccc1)NC(=O)[C@H](CC(N)=O)NC(=O)c1ccc2ccccc2n1	-0.2%	·	·	9%	·
Cc1nnc(SCC(=O)Nc2c(Cl)cccc2Cl)[nH]c1=O	1.8%	·	·	7%	·
Cc1ccc(C)c(N(CC(N)=O)S(C)(=O)=O)c1	1.2%	1.4e-08	i	-7%	i
c1ccc(-c2noc(C34CC5CC(CC(C5)C3)C4)n2)nc1	0.2%	1e-09	i	·	i
CCN1CCN(c2ncc(C(=O)Nc3ccccc3C(=O)OC)c3ccccc23)CC1	0.8%	1.4e-08	i	27%	i
c1ccc2sc(SCSc3nc4ccccc4s3)nc2c1	-0.4%[11.5 µM]	3.4e-08	i	13%[11.4 µM]	i
COc1ccc(-c2cc(C(F)(F)F)nc(SCC(N)=O)n2)cc1	0.6%	2.5e-08	i	-3%	i
CC(OC(=O)c1nn(C)c(=O)c2ccccc12)C(=O)NCc1ccc2c(c1)OCO2 (centres undefined)	-0.5%	1e-09	i	5%	i
CCSc1ncc(C#N)c(=O)[nH]1	1.1%	2.6e-08	i	4%	i
CCC(OC(=O)c1nsc(Cl)c1Cl)C(=O)NCc1ccco1 (centres undefined)	-0.8%	1.5e-08	i	10%	i
Cc1ccc(C2=CSC3=NCCN23)c(C)c1	0.1%	3e-08	i	13%	i
O=C(O)c1cccc(S(=O)(=O)NCC2CCCO2)c1 (centres undefined)	-3.2%	2.6e-08	i	3%	i
O=C1CC(c2ccccc2)CC(O)=C1C=NCC1CCCO1 (centres undefined)	0.2%	·	·	6%	·
CCn1c(SCc2nnc(-c3ccccc3)o2)nc2c1c(=O)n(C)c(=O)n2C	-0.1%	3.6e-08	i	1%	i
O=C(Nc1ccccc1)C1CC=CCC1C(=O)OCC1CCCO1 (centres undefined)	1.9%	·	·	6%	·
Nc1[nH]c(=O)nc2c1ncn2[C@H]1O[C@@H](CO)[C@@H](O)[C@@H]1O	-0.7%[11.5 µM]	4e-08	i	21%[11.4 µM]	i
COc1cccc(-c2ccc3ncnc(N(C)C)c3c2)c1	1.9%	1e-09	i	?	i
CN(Cc1ccccc1)C(=O)c1cccc(NC(=O)c2ccco2)c1	-0.2%	1.8e-08	i	0%	i
O=C(CSc1nnc2ccccn12)c1ccccc1	2.8%	·	·	-1%	·
N#Cc1c(-c2ccccc2)nc(N2CCCCCC2)[nH]c1=O	-2.3%	8.2e-09	i	7%	i
O=C(NCCOc1ccccc1)c1n[nH]c(=O)c2ccccc12	0.1%	4.6e-09	i	·	i
c1ccc(-c2nnc(CSc3nnc(-c4ccncc4)n3Cc3ccco3)o2)cc1	0.7%	9.9e-09	i	29%	i
O=C(CSc1nnnn1C1CC2CCC1C2)Nc1ccnc2ccccc12 (centres undefined)	-1.4%	1e-09	i	?	i
COc1ccc(C(=O)N2CCC(C(=O)Nc3ccc(OC)c(OC)c3)CC2)cc1	0.6%	·	·	-10%	·
Cc1ccc(NC(=O)CSc2nnc(-c3ccncc3)n2N)cc1C	-3.4%	9.5e-09	i	-2%[11.4 µM]	i
COc1ccc(Cn2nnnc2C(c2cc3cc(C)cc(C)c3[nH]c2=O)N2CCOCC2)cc1 (centres undefined)	-1.3%	1e-09	i	4%	i
CC(C)S	3.6%	·	·	-1%	·
Cc1cc(-n2c(C)cc(C(=O)CSc3nc4ccccc4c(=O)n3Cc3ccco3)c2C)no1	0.7%	2.5e-08	i	?	i
CCOc1ccccc1NC(=O)CCC(=O)Nc1ccc2nc(N3CCN(C)CC3)cc(C)c2c1	-1.6%	5.4e-09	i	-19%	i
Cc1ccc(CNc2ccc3c(c2)ncn3C)cc1	-0.7%	1e-09	i	-9%	i
CC(=O)NCCOc1c(C)cc(S(N)(=O)=O)cc1C	0.3%	·	·	-8%	·
NCCc1nnc(SCc2ccccc2)o1	-1.7%	3.6e-08	i	1%	i
COc1ccccc1N1CCN(C(=O)c2cc(-c3ccc(Br)cc3)on2)CC1	2.1%	·	·	27%	·
Cc1ccc(NC(=O)c2cccc(N(C)C)c2)cc1NC(=O)c1ccc(O)cc1	-4.0%	·	·	-1%	·
CCCn1c(N)c(C(=O)CSc2nnc(Cc3ccccc3)o2)c(=O)n(C)c1=O	-0.7%	2.8e-08	i	9%	i
CCOc1ccc(N(CC(=O)OC)S(=O)(=O)c2c(C)noc2C)cc1	-0.5%	·	·	?	·
O=c1[nH]c(CSc2ncc(-c3ccc(F)cc3)n2Cc2ccco2)nc2ccccc12	2.3%	2.8e-08	i	?	i
CCc1ncc(CO)n1Cc1cccc2ccccc12	-2.0%[11.5 µM]	5.7e-09	i	9%[11.4 µM]	i
CCOC(=O)C(CCOc1cccc(CC)c1)C(=O)OCC	1.5%	·	·	?	·
CCOC(=O)c1c(N)sc2c1CCC1C(=O)N(C3CCCCC3)C(=O)C21 (centres undefined)	·	6.9e-08	i	·	i
C=CCn1c(SCC(=O)c2ccccc2)nnc1-c1cc2ccccc2o1	5.3%	3.4e-09	i	?	i
O=C(Nc1nccs1)C1C2/C=C\CCCCC21 (centres undefined)	2.2%	3.1e-08	i	10%	i
O=C(NCc1cccs1)c1cnn2cccnc12	-1.7%	1.4e-08	i	5%	i
OCC1(CO)COC2(CCCC2)N1	0.3%	5.2e-09	i	-6%	i
O=C(NCCc1cccc(F)c1)[C@@H]1CSC2c3ccccc3C(=O)N21 (some centres undefined)	0.1%	1.2e-09	i	?	i
CS(=O)(=O)N(CC(=O)N1CCCCC1)C1CCCCC1	0.6%	1.3e-09	i	-1%	i
COCCn1c(=O)c(C)nc2cnc(OC)nc21	2.4%	1e-09	i	?	i
CCCCCCOC(=O)C(C#N)c1nc2ccccc2nc1N1CCCCC1 (centres undefined)	12%	2.6e-08	i	3%	i
Cc1c(C(=O)NN2CCOCC2)nn(-c2ccc(Cl)cc2Cl)c1-c1ccc(I)cc1	-2.5%	·	·	0%	·
CS(=O)(=O)N1CCC(C(=O)NCc2ccco2)CC1	0.8%	4.3e-08	i	-2%	i
N#Cc1ccc(Oc2ccc(C(N)=O)cc2)cc1C#N	-1.5%	1e-09	i	4%	i
O=C(c1cc2ccccc2oc1=O)N(Cc1ccc2c(c1)OCO2)Cc1ccco1	-0.2%	1.2e-09	i	?	i
CCc1nc(N)nc2c1C(=O)CC(C)(C)C2	1.8%	·	·	5%[11.4 µM]	·
O=C(Cn1nc(C(F)(F)F)c2c1CCCC2)NCCN1CCOCC1	5.9%	3.6e-08	i	-4%	i
CN(C)CC(CN(C)C)c1ccccn1	1.9%[11.5 µM]	3.6e-08	i	·	i
Cc1cc(C)cc(NC(=O)NCc2nnc(SCc3ccccc3)n2C)c1	0.7%	1.9e-08	i	-12%	i

A section taken from the entries so far, as a working copy:
SMILES	AID923	A647 fluor	Resorufin fluor	TSHR ag	A488 autofl
CCCCCCOC(=O)C(C#N)c1nc2ccccc2nc1N1CCCCC1 (centres undefined)	12%	2.6e-08	i	3%	i
Cc1c(C(=O)NN2CCOCC2)nn(-c2ccc(Cl)cc2Cl)c1-c1ccc(I)cc1	-2.5%	·	·	0%	·
CS(=O)(=O)N1CCC(C(=O)NCc2ccco2)CC1	0.8%	4.3e-08	i	-2%	i
N#Cc1ccc(Oc2ccc(C(N)=O)cc2)cc1C#N	-1.5%	1e-09	i	4%	i
O=C(c1cc2ccccc2oc1=O)N(Cc1ccc2c(c1)OCO2)Cc1ccco1	-0.2%	1.2e-09	i	?	i

(cont.)
SMILES	AID923	A647 fluor	Resorufin fluor	TSHR ag	A488 autofl
COC(=O)N1CCC2(CC1)CCN(c1ccccn1)CC2	0.2%	2.2e-09	i	?	i
COc1ccc(OCC(=O)OCC(=O)Nc2ccc(S(=O)(=O)N3CCCCC3)cc2)cc1	0.3%	1e-09	i	3%	i
CN1CCC[C@@H]1CCO[C@](C)(c1ccccc1)c1ccc(Cl)cc1	-0.3%	2.2e-08&5.3e-08	i	?	i
c1ccc(-c2noc(CSc3nnc(Cc4cccs4)n3-c3ccccc3)n2)cc1	16%	5.5e-09	i	?	i
CCCCNC(=O)C1C2C=CC3(CN(Cc4ccc(C)cc4)C(=O)C13)O2 (centres undefined)	1.3%	2.8e-08	i	1%	i
COc1cccc(-c2csc(N3CCN(C(=O)Nc4ccccc4OC)CC3)n2)c1	1.8%	1e-09	i	20%	i
O=C1C2ON(c3ccc(Cl)cc3)C(c3ccco3)C2C(=O)N1c1ccccc1 (centres undefined)	2.8%	4.6e-09	i	15%	i
CC(=O)n1nc(-c2ccccc2)nc1NCc1ccc(F)cc1	0.1%	3.2e-08	i	·	i
COc1ccc(C2/C(=C(/O)c3cnn(-c4ccccc4)c3C)C(=O)C(=O)N2CCN(C)C)cc1OC (centres undefined)	·	1e-09	i	·	i
N#CC1(c2ccccc2)CCCN1C(=O)c1ccc(Br)o1 (centres undefined)	-0.3%	1e-09	i	-37%[inhibitor]	i
C=CCn1c(COc2ccccc2)nnc1SCC(=O)NCC(=O)OCC	0.7%	6e-09	i	-7%	i
CNC(=O)CN(C)S(=O)(=O)c1ccc(OC)c(Cl)c1	1.5%	1e-09	i	-3%	i
CC(=O)N1CCc2c(sc(NC(=O)c3ccc(S(=O)(=O)N(C)C)cc3)c2C#N)C1	0.4%	·	·	15%	·
CCN(CC)S(=O)(=O)c1ccc(-c2nnco2)cc1	-1.8%	9.5e-09	i	16%	i
O=C(Nc1ccc(CN2CCCCC2)cc1)c1ccc2c(c1)OCO2	0.8%	4.2e-08	i	9%	i
CCOC(=O)c1ccc(COC(=O)c2cc(=O)[nH]c3ccccc23)o1	-1.6%	8.6e-09	i	14%	i
O=S(=O)(NCCSc1ccccc1)c1ccc2c(c1)OCCO2	4.0%	·	·	?	·
CCCCC(CC)C(=O)NCCc1ccc(S(N)(=O)=O)cc1 (centres undefined)	2.4%	·	·	15%	·
CCCCNC(=O)CCn1nc(-c2ccccc2)ccc1=O	-0.4%	2.9e-08	i	-5%[11.4 µM]	i
Cc1ccc(S(=O)(=O)N2CCC(C(=O)O)(c3ccccc3)CC2)cc1	-3.9%[11.5 µM]	1e-09	i	12%[11.4 µM]	i
Cc1cccc(-c2nnc(N)s2)c1	-0.8%	1.5e-08	i	0%	i
CCCS(=O)(=O)N1CCC(C(=O)NC2CCCC(C)C2C)CC1 (centres undefined)	1.0%	1e-09	i	-6%	i
Cc1cc(C)n(S(=O)(=O)c2ccc3ccccc3c2)n1	0.2%	·	·	?	·
COc1ccc(NC2SC(=O)N(CC(=O)O)C2=O)cc1 (centres undefined)	-0.7%	1e-09	i	4%	i
CCOC(=O)c1cnc2nc(Cc3ccccc3)[nH]n2c1=O	2.2%	2.7e-08	i	-3%	i

Screens from PubChem BioAssay.
